High-throughput results (PubChem BioAssay)
Mtb hypoxia inh: Mtb hypoxia fluorescent reporter inhibition; M. tuberculosis hypoxia-regulated fluorescent reporter, fluorescence; hit rate 0.1% among 300,000; fluorescence inhibition, % (test concentration not listed); AID 1159583;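 active means 35 to 45% if threefold the growth effect, above 45% if 1.5-fold the growth effect; inactive means the rest, general growth blockers included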;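 further: wells of about 50 µL received 100 nL stock; 0% = vehicle wells and 100% = reference inhibitor wells; whole bacteria with a GFP reporter of the hypoxia response; strong numbers were not always called active; many hits fall short of the cut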
Autofluor counter: compound fluorescence in toxin protease inhibitor counterscreen | compound autofluorescence counterscreen, microsphere flow cytometry; stronger effect = higher value | fluorescence intensity (no concentration beside the values) | hit rate 3.1% among 360,000;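 active means at least 3 SD above the mean of all compounds, about 16000 in these data; inconclusive means too few beads counted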;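 further: 100 nL of 1 mM stock went into each well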
BJeLR viability: BJeLR cell viability loss; hit rate 0.17% among 300,000; inhibition, % (concentration not given with the values); BJeLR (HRASV12) viability, CellTiter-Glo ATP luminescence, 48 h; reference of the scale not given here; AID 1554;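 active means replicate mean above 50%; inconclusive means above 50% but judged a plate artefact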;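 further: 50 nL library stock added to about 25 µL; numbers are from one replicate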
Sa ugtP lethal: growth inhibition of S. aureus ugtP deletion strain | S. aureus RN4220 ugtP deletion, OD600 growth, 16 h; some inactives read as strong as hits | growth inhibition, % (no concentration beside the values) | hit rate 0.54% among 330,000;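 active means z-score under -3 and OD600 up to 0.15 on both plates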;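 further: plate controls were untreated wells for no effect and antibiotic for full effect; wells of about 80 µL received 100 nL stock; the first replicate is given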
PrP 5UTR inh: suppresses PrP 5' UTR mRNA reporter expression | cell-based PrP 5' UTR mRNA reporter, plate reader | inhibition, % (test concentration not listed) | hit rate 0.35% among 340,000 | AID 488862;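 active means every replicate at 50% or more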;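 further: 0 = median of the neutral control wells; tested in H4 reporter cells; numbers are from one replicate; inactives centre near -14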
Sa RN4220 lethal: S. aureus RN4220 growth inhibition; OD600, 16 h; inhibition, % (test concentration not listed); hit rate 0.33% among 330,000;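 active means z-score of -3 or lower and OD600 up to 0.18 on both plates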;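 further: plate controls were untreated cells for no effect and reference antibiotic for full effect; stock transfer was 100 nL into about 80 µL; one replicate is shown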
Mtb hypoxia inh growth: second read-out of Mtb hypoxia inh, no call of its own (marks repeat the call); growth inhibition, %; measured here: M. tuberculosis growth (absorbance);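 0% = vehicle and 100% = reference antibiotic; read after six days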
Numbers without * were called inactive; ? = inconclusive; nt = not tested or not shown; & = joins results of further samples.

SMILES	Mtb hypoxia inh	Mtb hypoxia inh growth	Autofluor counter	BJeLR viability	Sa ugtP lethal	PrP 5UTR inh	Sa RN4220 lethal
C=CCNc1nc(Nc2ccc(OC)cc2)nc(OCC)n1	0	-6	4442	5	-1	-3	5.3
CC=CC(=O)N1CC2(CC(c3cccc(NC(=O)CC(c4ccccc4)c4ccccc4)c3)=NO2)CC1C(N)=O (configuration not stated)	-2	4	nt	nt	1	nt	1.5
O=C(OCCN1CCOCC1)C1(c2ccccc2)CCCC1	0	0	4508	-5	-2	-14	6.5
COc1ccccc1N1CCN(C2CCCN(C(=O)CN3CCCCC3=O)C2)CC1 (configuration not stated)	-4	-1	5703	2	-8	-3	-5.5
C=CCn1c(SCc2c(C)noc2C)nc2sc3c(c2c1=O)CCCCC3	3	6	24051*	-5	88*	-5	4.4
CCOC(=O)c1oc2ccccc2c1CSc1nnnn1-c1ccccc1	nt	nt	4060	-3	2	-11	3.8
O=C1CN(c2ccccc2)C(=O)N1	3	5	nt	-5	3	-6	0.7
COc1cccc(OCCOc2ccccc2OC(C)C)c1	nt	nt	2329	5	7	-22	5.9
Cc1cc(N(C)C)ccc1N=Nc1ccc(N)cc1	2	11	nt	9	14	-82	-2.9
CCOc1cccc(-c2c(C(=O)NN=Cc3cccs3)nnn2-c2nonc2N)c1	15	8	nt	nt	11	nt	3.7
Cn1c(N)c(C(=O)CSc2nnc(-c3cccs3)n2C2CC2)c(=O)[nH]c1=O	7	7	5655	nt	4	-20	-0.7
Cc1ccc(NC(=O)CN(C)C(=O)c2ccc(Br)o2)cc1	2	-9	2991	3	5	-11	0.3
Cc1cc(C(=O)OCC(=O)N(C)c2ccccc2)ccc1[N+](=O)[O-]	-3	7	4283	-8	2	-15	8.8
CCN(CC)c1ncnc2c1sc1nc(C)cc(C)c12	11	21	8518	9	0	-15	5.2
O=C(NN=Cc1c(F)cccc1Cl)c1cc(C2CC2)[nH]n1	9	-1	nt	nt	3	nt	35
NC(=O)COc1ccc(/C=N/NC(=O)C2CCCN2S(=O)(=O)c2ccc(Cl)cc2)cc1 (configuration not stated)	nt	nt	2492	10	nt	-12	nt
CCCCn1c(-c2ccc([N+](=O)[O-])cc2)n[nH]c1=S	1	-5	2400	6	-4	-7	-13
COc1cc(NC(=O)CSc2nnc(-c3cc(C)on3)o2)cc(OC)c1	4	-2	6378	5	4	-9	-1.2
O=C(CSc1ncnc2c1cnn2-c1ccc(F)cc1)NCC1CCCO1 (configuration not stated)	5	12	5660	-7	2	-7	-1.4
Clc1cccc(C2CCN(Cc3nc(COc4ccccc4)no3)C2)c1 (configuration not stated)	14	8	4138	2	10	-16	25
Cc1ccc(C(=O)COC(=O)c2cnccn2)cc1C	-5	2	nt	1	6	nt	12
N#CCOc1coc(CN2CCN(c3ccccc3)CC2)cc1=O	-5	10	5237	3	0	7	-0.9
O=C(O)c1cccc(NS(=O)(=O)c2ccc(Oc3ccc(S(=O)(=O)Nc4cccc(C(=O)O)c4)cc3)cc2)c1	14	4	5786	-5	7	-21	2.2
Cc1ccc(Cc2c[nH]c(=S)s2)cc1	3	9	4715	-5	19	-24	5.5
CSc1nc(-c2ccco2)nn1S(C)(=O)=O	nt	nt	3684	-10	1	-24	0.2

Continuation:
SMILES	Mtb hypoxia inh	Mtb hypoxia inh growth	Autofluor counter	BJeLR viability	Sa ugtP lethal	PrP 5UTR inh	Sa RN4220 lethal
O=[N+]([O-])c1ccc(Nc2ccccc2O)c2nonc12	nt	nt	4052	-1	47	-27	38
CCOC(=O)N1CCC(n2c(SCC(=O)NCCC3=CCCCC3)nc3ccccc3c2=O)CC1	-6	0	19812*	-5	0	-13	-0.9
CCn1ncc(C2=NOC(C(=O)Nc3ccc(C)cc3)C2)c1C (configuration not stated)	2	1	4558	2	7	-31	0.4
Cc1cccc(-n2c(O)c(C=NC3CCS(=O)(=O)C3)c3ccccc3c2=O)c1 (configuration not stated)	nt	nt	4531	4	4	-5	-0.4
O=C(N/N=C/c1cc2c(cc1Br)OCO2)c1cccnc1	nt	nt	4598	2	nt	62*	nt
O=C(NC(=S)N1C[C@H]2C[C@H](C1)c1cccc(=O)n1C2)c1ccc(F)cc1	nt	nt	5177	8	-9	-20	4.6
COc1ccccc1NC(=O)C1(c2ccccc2)CCCC1	23	15	3010	8	3	-6	4.8
COc1cccc(-c2cc(C(=O)NC3CCCCC3)no2)c1	3	3	6007	-16	5	-68	1.5
CCc1noc(C)c1C(=O)Nc1nc2c(C)cc(C)cc2s1	4	5	?	4	-7	3	12
COC(CC(O)CC(=O)COCc1ccccc1)OC (configuration not stated)	13&6	7&3	nt	nt	-3&-5	nt	4.3&5.3
Cc1ccc(C=NNC(=O)Cc2ccc(O)cc2)s1	-6	-4	nt	nt	1	nt	3.3
CCCCn1cc2c(c1-c1cccc(C)c1)c(=O)n(C)c(=O)n2C	5	-5	4464	-2	3	-23	1.1
O=C(CSc1ncnc2ccccc12)c1cccs1	7	10	4262	8	-61	-27	3.7
Oc1ccc2ccccc2c1CNn1cnnc1	10	-7	5270	-13	2	-79	5.9
COc1ccccc1NC(=S)NNC(=O)c1ccncc1	13	1	1889	1	4	-13	2.7
COc1ccc(C=NNC(=O)c2ccc(F)cc2)cc1COc1cc(F)ccc1[N+](=O)[O-]	3	5	nt	nt	-5	nt	-0.1
Cc1c(C(=O)OCC(=O)NC2CCCCC2)oc2ccccc12	11	1	7922	nt	-1	-10	6.0
O=c1[nH]nc(-c2ccc(F)cc2)cc1-c1ccccc1	3	2	3772	0	9	nt	1.8
O=C(NN1C(=O)C2C3C=CC(C4CC34)C2C1=O)c1cccc(Br)c1 (configuration not stated)	4	-1	4635	3	-4	-17	11
O=C(COC(=O)c1cccc(S(=O)(=O)N2CCCCCC2)c1)Nc1ccccc1	5	3	?	nt	5	-13	3.5
COc1ccccc1NC(=O)CN1CCN(CC(=O)Nc2ccc(F)cc2F)CC1	0	-8	3027	11	16	-28	4.2
COC(=O)COC(=O)c1ccc(-n2nnnc2SC)cc1	3	9	22577*	-4	6	-3	5.3
Cc1ccc(CNC(=O)C2CCN(C(=O)c3cccc(Cl)c3)CC2)cc1	0	7	5432	3	7	5	0.6
COC(=O)C1=CNC=C(C(=O)OC)C1c1cccc2ccccc12	-3	-6	3651	-18	-9	-18	3.8
CCN(CC)CCNC(=O)NC1CCCCC1	7	10	22854*	-1	-4	0	1.4

A second format for part of the listing above:
Each structure is followed by: Mtb hypoxia inh, Mtb hypoxia inh growth, Autofluor counter, BJeLR viability, Sa ugtP lethal, PrP 5UTR inh, Sa RN4220 lethal
- O=[N+]([O-])c1ccc(Nc2ccccc2O)c2nonc12
 : nt, nt, 4052, -1, 47, -27, 38
- CCOC(=O)N1CCC(n2c(SCC(=O)NCCC3=CCCCC3)nc3ccccc3c2=O)CC1
 : -6, 0, 19812*, -5, 0, -13, -0.9
- CCn1ncc(C2=NOC(C(=O)Nc3ccc(C)cc3)C2)c1C (configuration not stated)
 : 2, 1, 4558, 2, 7, -31, 0.4
- Cc1cccc(-n2c(O)c(C=NC3CCS(=O)(=O)C3)c3ccccc3c2=O)c1 (configuration not stated)
 : nt, nt, 4531, 4, 4, -5, -0.4
- O=C(N/N=C/c1cc2c(cc1Br)OCO2)c1cccnc1
 : nt, nt, 4598, 2, nt, 62*, nt
- O=C(NC(=S)N1C[C@H]2C[C@H](C1)c1cccc(=O)n1C2)c1ccc(F)cc1
 : nt, nt, 5177, 8, -9, -20, 4.6
- COc1ccccc1NC(=O)C1(c2ccccc2)CCCC1
 : 23, 15, 3010, 8, 3, -6, 4.8
- COc1cccc(-c2cc(C(=O)NC3CCCCC3)no2)c1
 : 3, 3, 6007, -16, 5, -68, 1.5
- CCc1noc(C)c1C(=O)Nc1nc2c(C)cc(C)cc2s1
 : 4, 5, ?, 4, -7, 3, 12
- COC(CC(O)CC(=O)COCc1ccccc1)OC (configuration not stated)
 : 13&6, 7&3, nt, nt, -3&-5, nt, 4.3&5.3
- Cc1ccc(C=NNC(=O)Cc2ccc(O)cc2)s1
 : -6, -4, nt, nt, 1, nt, 3.3
- CCCCn1cc2c(c1-c1cccc(C)c1)c(=O)n(C)c(=O)n2C
 : 5, -5, 4464, -2, 3, -23, 1.1
- O=C(CSc1ncnc2ccccc12)c1cccs1
 : 7, 10, 4262, 8, -61, -27, 3.7
- Oc1ccc2ccccc2c1CNn1cnnc1
 : 10, -7, 5270, -13, 2, -79, 5.9
- COc1ccccc1NC(=S)NNC(=O)c1ccncc1
 : 13, 1, 1889, 1, 4, -13, 2.7

Later entries.
SMILES	Mtb hypoxia inh	Mtb hypoxia inh growth	Autofluor counter	BJeLR viability	Sa ugtP lethal	PrP 5UTR inh	Sa RN4220 lethal
CC(C)c1onc(C(=O)NC2CCCCC2)c1[N+](=O)[O-]	-4	-1	2447	9	18	-45	-0.4
CCc1ccccc1N(C(=O)c1snc(C(N)=O)c1N)C(C(=O)NCC1CCCO1)c1ccc(C)o1 (configuration not stated)	2	2	5084	-4	-1	-11	8.8
Cc1ccc(NC(=O)COC(=O)/C(=C/c2cccs2)c2cccs2)cc1S(=O)(=O)N(C)C	11	3	10712	-21	-5	4	4.3
Nc1c(N(CCC2=CCCCC2)C(=O)c2ccccc2F)c(=O)[nH]c(=O)n1Cc1ccccc1	-3	-7	3221	nt	5	-33	4.4
CCn1c(SCC(=O)NCC(=O)Nc2ccc(F)cc2)nnc1-c1cccs1	8	0	7227	3	9	-1	-1.4
CC(O)Cc1cc2ccccc2c(=O)o1 (configuration not stated)	6	10	nt	nt	7	nt	4.1
O=C(CNC(=O)c1ccc2c(c1)OCCO2)N/N=C/c1ccco1	nt	nt	6049	-10	nt	-14	nt
O=C(Nc1nc2c(s1)CCCC2)c1nn(Cc2ccccc2)c(=O)c2ccccc12	nt	nt	2537	-12	nt	0	nt
COc1ccc(OC)c(NC2c3ncccc3C(=O)N2Cc2ccco2)c1 (configuration not stated)	3	-2	16912*	-2	9	-6	6.8
C=CCn1c(N)cc(=O)nc1SCC(=O)N(c1ccccc1)c1ccccc1	14	11	4442	4	4	-47	1.0
CCS(=O)(=O)NCc1cn2c(C)csc2n1	5	1	2895	3	-3	-13	5.3
COC(=O)c1ccc(SCC(=O)NCc2ccccc2)c([N+](=O)[O-])c1	5	-3	3848	1	1	-26	-0.3
COc1cccc(-c2nc(CS(=O)CC(=O)NC3CCCCC3)c(C)o2)c1 (configuration not stated)	2	2	4639	-1	3	-5	6.7
COc1ccc(N2CCN(C(=O)COc3ncnc4ccccc34)CC2)cc1	9	2	4075	2	6	-9	5.8
Cc1ccc(-n2ccnc(SCC(=O)NC3CCCC3)c2=O)cc1Cl	-3	3	?	-10	0	-4	0.1
CC12COC3(C(=O)Nc4ccc(Cl)cn4)CC1CCC32C (configuration not stated)	5	4	8791	0	14	-27	2.4
CN(C(=O)c1ccccn1)c1nnc(-c2cnccn2)s1	2	-3	3119	-3	12	-26	2.2
CSc1nc(C)cc(OCCO)n1	nt	nt	4964	8	3	-21	3.0
Cc1cc(C)cc(N(CC(=O)N2CCN(c3ccccc3)CC2)S(=O)(=O)c2c(C)noc2C)c1	nt	nt	5740	-2	-9	-2	-3.5
CN1CCN(NC(=O)c2cccc(C(F)(F)F)c2)CC1	7	2	4941	-8	-1	-1	2.3
COc1cccc(C(=O)NC2CCSC2=O)c1 (configuration not stated)	6	13	19865*	-3	-1	3	3.3
O=S(=O)(c1ccccc1)N1CCN=C1SCc1ccccc1	1	-6	2057	4	2	-7	4.3
CN(c1ccccc1)S(=O)(=O)c1cccc(NC(=O)c2cccc(C#N)c2)c1	-1	0	8943	nt	5	-18	2.5
Cc1ccc2nc(-c3ccc(NC(=O)C4CCCO4)cc3)[nH]c2c1 (configuration not stated)	9	7	11979	8	-8	-1	-0.2
O=C(Nc1cccc(-c2cccc(Cl)c2)c1)C1CCN(Cc2ccccn2)CC1	3	15	6648	1	-6	-4	-2.9
CCCOc1ccc(C(C)=O)cc1Cc1c(O)nc(SC)[nH]c1=O	-5	-11	3216	7	5	-20	-0.1
O=C(CCn1c(=O)c2sccc2n(CC(=O)NCc2ccco2)c1=O)NCc1ccccc1	-10	0	24369*	14	-6	-10	-4.1
CSc1ccccc1NC(=O)CNCCCN1CCOCC1	-1	-4	4920	2	9	-17	2.7
CCCn1c(=O)c(C(=O)NNC(=O)c2ccccc2Cl)c(O)c2ccccc21	2	-5	5684	4	3	-15	23
COc1cc(OC)c2ccc(=O)oc2c1C(CCN1CCN(c2ccccc2)CC1)c1ccc(N(C)C)cc1 (configuration not stated)	-5	4	3846	2	6	-12	7.0
